Compound activity (PubChem BioAssay)
H5N1 antiviral = MDCK cell protection from H5N1 avian flu; inhibition, % at 50 µM; cytopathic effect, luminescence, 72 h; stronger effect = higher value; no value below 0 was filed and about half of the inactive calls have no number; reference of the scale not given here; 0.07% of 96,000 active; in the data active means inhibition above about 25%
An asterisk follows results filed as active; i = inactive. Only part of the results is shown. The share of hits here may be higher or lower than overall.

SMILES	H5N1 antiviral
CN(C(=O)COC(=O)c1ccc(Cl)cc1N)C1CCS(=O)(=O)C1 (stereo unspecified)	i
COc1cc(OC)cc(-c2nnc(SCC(=O)N3CCCC3)o2)c1	i
COc1ccc(Cn2c(C)cc3c(c2=O)C(c2cccs2)C(C#N)=C(N)O3)cc1OC (stereo unspecified)	2.4
c1ccc(Cn2c(CNc3nc4ccccc4n3CCN3CCOCC3)nc3ccccc32)cc1	i
CCOC(=O)C1C(=O)N(C)C2(C)CC1c1cc(OC)ccc1O2 (stereo unspecified)	i
CC1(C)C2CCC1(C)C(NC1=NCCC1)C2 (stereo unspecified)	0.9
CC(Oc1ccc(Cl)cc1Cl)C(=O)NC1CCSC1=O (stereo unspecified)	0.3
CC(C)OCCCNC(=O)c1cc2c(s1)CS(=O)(=O)C2	i
COc1ccc(-n2ncc3c(NCCCN4CCOCC4)ncnc32)cc1	i
CCc1sc(N2C(=O)C3C4CCC(C4=C(C)C)C3C2=O)nc1-c1ccccc1 (stereo unspecified)	i
Cc1ccc(C)n1N1C(=O)/C(=C\c2ccc(Cl)cc2)SC1=S	0.5
CCn1c(COc2cccc(OC)c2)nnc1SCC(=O)Nc1ccccc1C(=O)OC	i
CCOc1cccc2sc(=NC(=O)c3ccc(S(=O)(=O)N4CCOCC4)cc3)n(C)c12	0.9
Cc1cccc(-n2ncc3c(NCc4ccccn4)ncnc32)c1	0.9
Cc1ccc2nc(C)/c(=N\O)c(C)nc2c1	i
CCCn1c(=N)c(C(=O)NCC2CCCO2)cc2c(=O)n3cccc(C)c3nc21 (stereo unspecified)	7.7
Cc1ccc(C(=O)c2c(NC(=O)c3cccnc3)sc3c2CCCC3)cc1	i
O=C(NCC1CCCO1)c1ccc(N2CCCCC2)nc1 (stereo unspecified)	i
O=C(Nc1ccc(N2CCOCC2)cc1)C1CCCN(S(=O)(=O)c2cccc(C(F)(F)F)c2)C1 (stereo unspecified)	i
COc1cccc(/C=N/Nc2ncnc(N)c2[N+](=O)[O-])c1OC	1.0
Cc1cccc(-c2noc(CN(C)S(=O)(=O)c3cc(Cl)ccc3Cl)n2)c1	1.5
Cc1ccc2[nH]c3c(c2c1)CCCC3=O	0.9
Cc1c(C(=O)Nc2c(C)n(C)n(-c3ccccc3)c2=O)oc2ccccc12	i
Cc1nc(CN2CCN(C(=O)c3ccc(Br)cc3)CC2)cs1	0.9
O=S(=O)(NCc1cn2ccsc2n1)c1ccc(Oc2ccccc2)cc1	0.0
Cc1ccc2c(c1)-c1c(cnn1CC(=O)O)CO2	0.2
OCCSc1nc(-c2cccnc2)nc2ccccc12	2.2
CCOCCCNC(=O)c1c[nH]c2cc(C)ccc2c1=O	i
Cc1cc(N2CCN(Cc3ccc4c(c3)OCO4)CC2)n2ncnc2n1	0.7
COC(=O)Cn1ncc2c(C)n(Cc3ccccc3)c(C)c2c1=O	0.7
COCCNC(=O)CS(=O)Cc1nc(-c2ccc(OC)cc2)oc1C (stereo unspecified)	i
O=C(COc1ccc(Cl)cc1)NC1CCSC1=O (stereo unspecified)	0.2
CC(C)C[C@H](N)c1nnc(S(=O)(=O)Cc2ccc(F)cc2)o1	5.9
Cc1ccc2c(c1)c1c(n2CC(O)CN2C(=O)CNC2=O)C(=O)CCC1 (stereo unspecified)	2.6
O=C1CC(C(=O)Nc2ccccc2)N=C(N2CCOCC2)N1 (stereo unspecified)	i
COC(=O)c1ccc2c(=O)n(Cc3ccco3)c(SCC(=O)Nc3ccccc3Cl)nc2c1	i
COC(=O)[C@H](CCSC)NC(=O)NCCc1ccc(F)cc1	i
O=C(NCc1ccccc1)c1ccc(CN2CCOCC2)cc1	0.3
CCc1ccc(NC(=O)c2cc(C(C)C)on2)cc1	i
CCn1nnnc1SCC(=O)c1ccc2c(c1)OCCO2	i
Cc1cc(C(F)(F)F)nn1-c1nc(-c2ccco2)cc(C(F)(F)F)n1	i
CCCCCCCCOC(=O)CCn1[nH]c(=O)c2ccccc2c1=O	i
CCOc1ccccc1NC(=O)CN(C)S(=O)(=O)c1cccc2nsnc12	1.0
CCOc1cc(C2C(C(=O)N3CCCCC3)=C(C)NC3=C2C(=O)CCC3)cc(Br)c1O (stereo unspecified)	0.2
Cc1c(-c2nnc(-c3ccc(C(F)(F)F)cc3)o2)cnn1-c1ccccc1	i
COc1ccc(CNC(=O)c2c(-c3cc(Cl)c(OC)c(Cl)c3)noc2C)cc1	0.6
Cc1cn(-c2ccc(Br)cc2)[nH]c1=O	i
COc1ccc(C2CC(c3ccc(C)cc3)Nc3nc(N)nn32)cc1 (stereo unspecified)	i
N#CCCN(C(=O)c1ccco1)c1ccccc1	i
O=C(N/N=C/c1ccc2ccccc2c1)c1ccc(COc2ccc3c(c2)CCC3)o1	i
COc1ccc(-c2nc(N)n[nH]2)cc1	0.7
Fc1ccc(C(c2nnnn2Cc2cccs2)N2CCN(C3CCCCC3)CC2)cc1 (stereo unspecified)	4.6
Cc1ccsc1C(C(=O)NC1CCCCC1)N(C(=O)Cc1cccs1)C1CC1 (stereo unspecified)	i
CC(=O)C1C(c2ccccc2OC(F)F)NC(=O)NC1(O)C(F)(F)F (stereo unspecified)	1.9
COC(=O)COc1ccc(-c2nn(C)c(=O)c3ccccc23)cc1	0.4
COC(=O)Cc1cc(=O)n(-c2nc3ccccc3[nH]2)[nH]1	0.8
COc1ccccc1N1CCN(CC(=O)c2c(C)n(C)c3ccccc23)CC1	i
CCCCCCCC(=O)NNC(=O)Cc1ccccc1	0.7
Cc1oc(-c2ccc(Cl)cc2)nc1CN1CCC(C(=O)NCCCN2CCOCC2)CC1	i
CO/N=C(/CS(=O)c1ccc(Br)cc1)c1ccc(OC)cc1 (stereo unspecified)	0.3

Among those listed so far, 4 have bromine:
SMILES	H5N1 antiviral
Cc1nc(CN2CCN(C(=O)c3ccc(Br)cc3)CC2)cs1	0.9
CCOc1cc(C2C(C(=O)N3CCCCC3)=C(C)NC3=C2C(=O)CCC3)cc(Br)c1O (stereo unspecified)	0.2
Cc1cn(-c2ccc(Br)cc2)[nH]c1=O	i
CO/N=C(/CS(=O)c1ccc(Br)cc1)c1ccc(OC)cc1 (stereo unspecified)	0.3

Additional records:
SMILES	H5N1 antiviral
CSCCC(NS(=O)(=O)c1ccc2c(c1)OCCO2)C(=O)NCCc1ccccn1 (stereo unspecified)	i
CCN(C(=O)CN1CCN(c2ccc(O)cc2)CC1)c1c(N)n(Cc2ccccc2)c(=O)[nH]c1=O	0.5
O=C(/C=N/O)NCCCn1ccnc1	0.4
O=C(CSc1nccn1-c1ncc(C(F)(F)F)cc1Cl)c1ccc(Cl)cc1	i
COc1ccc(OC)c(NC(=O)CN(c2ccc(OC)c(Cl)c2)S(C)(=O)=O)c1	i
COc1ccc(N(CC(=O)Nc2ccc3c(c2)OCCO3)S(=O)(=O)c2c(C)noc2C)cc1	i
CCCc1cc(=O)n2[nH]c(Cc3ccccc3)nc2n1	1.4
COc1ccc(O/C(=N\S(=O)(=O)c2ccccc2)c2ccccc2)cc1	1.3
CCOc1ccccc1NC(=O)c1ccc(F)c(S(=O)(=O)N2CCC3(CC2)OCCO3)c1	i
O=C(NCC1CCCO1)c1cc2c(s1)CS(=O)(=O)C2 (stereo unspecified)	0.5
CSc1nc(SC)c2c3c(oc2n1)COC(C)(C)C3	i
CC1CCCCC1NC(=O)c1cncc(Br)c1 (stereo unspecified)	0.9
CC(N=Cc1c(O)[nH]c(=O)[nH]c1=O)c1ccccc1 (stereo unspecified)	i
CCc1ccccc1NC(=O)CSc1nc2n[nH]c(C)c2c(=N)n1-c1ccc(OC)cc1	0.1
Cn1c(Cn2nnc3ccccc32)nnc1SCC(=O)N1c2ccccc2Sc2ccccc21	0.3
Cc1cccc(NC(=O)c2ccc(OCC(=O)NCc3ccccc3)cc2)c1C	i
Cc1nc(-c2cccnc2)sc1C(=O)Nc1ccc(C(F)(F)F)cc1	i
COc1ccc(S(=O)(=O)N2CCN(CC(=O)Nc3cc(C(F)(F)F)ccc3Cl)CC2)cc1	0.8
CC(=O)NC1(C(F)(F)F)N=C2SCCN2C1=O (stereo unspecified)	i
Cc1ccc(-n2c(C)cc3c2CCCC3=O)cc1	i
CC(C)Cc1nnc(NC(=O)CCC(=O)N2CCOCC2)s1	0.7
Cc1cc(C(F)(F)F)nc(SCc2ccc(C(=O)O)o2)n1	0.9
COc1ccccc1NC(=O)C1=C(C)Nc2nc(-c3ccccc3)nn2C1c1ccccn1 (stereo unspecified)	i
CCSc1nnc([C@H](C)NC(=O)OC(C)(C)C)o1	0.1
CC(C)Cn1c(CNC(=O)c2ccccc2)nc2ccccc21	6.4
O=C(c1ccc2snnc2c1)N1CCCC1	i
CCC1NC(=S)N(C2CCCCC2)C1=O (stereo unspecified)	i
Cc1cnc(NC(=O)COc2ccccc2Cl)s1	i
O=C(NC1(C(F)(F)F)C(=O)Nc2c1c(=O)[nH]c(=O)n2Cc1ccccc1)c1ccc(Cl)cc1 (stereo unspecified)	0.7
c1ccc(Cn2c(SCc3nc4ccccc4s3)nnc2-c2ccco2)cc1	i
O=C(O)C1CC=CCC1C(=O)Nc1ccc(F)c(F)c1 (stereo unspecified)	0.0
CCCc1c(O)nc(SCCN(CC)CC)[nH]c1=O	0.5
COc1ccc(C)cc1S(=O)(=O)Nc1ccc(F)cc1	1.0
O=C(CN1CCOCC1)Nc1nc2ccc(F)cc2s1	i
Cc1ccc(N=Cc2ccc[nH]2)c(O)c1	i
COc1cccc(C(c2sc3ncnn3c2O)N2CCN(C(=O)c3ccco3)CC2)c1 (stereo unspecified)	2.1
CC(C)C(c1nnnn1C1CCCCC1)N1CCc2ccccc2C1 (stereo unspecified)	0.3
Cc1ccc(-c2csc3nc(C)n(N)c(=O)c23)o1	i
CCC(=NCCN1CCCCC1)c1c(O)n(C)c(=O)n(C)c1=O	0.7
O=C(Nc1cc(Sc2nc3ccccc3s2)cc([N+](=O)[O-])c1)c1ccccc1F	0.1

Some values from the results shown.
Result for COc1ccc(C)cc1S(=O)(=O)Nc1ccc(F)cc1 under H5N1 antiviral: 1.0
Result for O=C(NC1(C(F)(F)F)C(=O)Nc2c1c(=O)[nH]c(=O)n2Cc1ccccc1)c1ccc(Cl)cc1 (stereo unspecified) under H5N1 antiviral: 0.7
Result for Cc1cc(C(F)(F)F)nc(SCc2ccc(C(=O)O)o2)n1 under H5N1 antiviral: 0.9
Result for CC(C)C(c1nnnn1C1CCCCC1)N1CCc2ccccc2C1 (stereo unspecified) under H5N1 antiviral: 0.3

Next part.
SMILES	H5N1 antiviral
O=C(c1ccc([N+](=O)[O-])cc1)N1CCOC12CCN(c1ncc(C(F)(F)F)cc1Cl)CC2	i
COc1ccc(Cl)cc1NC(=S)N1CCN(C(=O)c2ccco2)CC1	i
CCOC(=O)c1c(-c2cccc([N+](=O)[O-])c2)csc1NC(=O)C1CC1	1.2
CC(NC(=O)Nc1ccccc1)C(c1cccs1)N1CCN(C)CC1 (stereo unspecified)	0.8
Cn1c(NCc2ccco2)nc2ccccc21	1.3
Cc1ccc(S(=O)(=O)N(C)CC(=O)NCc2ccncc2)cc1	0.6
Cc1cc(C)n(C(=O)c2cc3ccccc3c(=O)o2)n1	i
COC(=O)c1cccc(-n2nnnc2SCC(=O)Nc2nc3c(s2)CCCC3)c1	i
COc1ccc(NC(=O)COc2ccc(CNCCCN3CCOCC3)cc2OC)cc1	i
CCOC(=O)N1CCN(c2c(Nc3ccc4c(c3)OCCO4)c(=O)c2=O)CC1	3.9
CCC1Oc2ccc(C)cc2N(CC(=O)N(Cc2ccc3c(c2)OCO3)CC2CCCO2)C1=O (stereo unspecified)	0.1
O=C(c1ccc(CS(=O)(=O)c2ccc(Br)cc2)o1)N1CCN(c2ncccn2)CC1	2.3
Cc1ccc(C(=O)NC(C)CCc2ccccc2)cc1[N+](=O)[O-] (stereo unspecified)	i
O=C(Nc1nc(N2C(=O)c3ccccc3C2=O)n(-c2ccccc2)n1)c1ccc(F)cc1	0.1
CCn1c(CNC(=O)Cc2ccc(OC)cc2)nnc1SCC(=O)c1ccc(Br)cc1	1.2
COc1ccc(Nc2ncc3c(n2)CC(c2ccc(OC)cc2)CC3=O)cc1 (stereo unspecified)	0.1
CC(C)(C)c1cc(Br)ccc1OCC(=O)Nc1ncn[nH]1	0.3
CC(=O)N1CCC(N(C(=O)Nc2ccc(F)cc2)C2CCCC2)CC1	0.1
C#CCn1cc[n+](CC(=O)N(C)C)c1	1.5
CCN(CC)S(=O)(=O)c1ccc(NC2c3ccccc3C(=O)N2Cc2ccco2)cc1 (stereo unspecified)	i
CCOC(=O)c1cc(-c2ccc(/C=N\n3cnnc3)o2)ccc1Cl	i
CC(C)NC(=O)Cn1c(SCC(=O)N2CCc3ccccc3C2)nc2ccccc21	i
COc1ccc(-c2nc(-c3cccs3)c(-c3cccs3)[nH]2)cc1O	i
O=C(O)c1cccc(CN2C(=O)SC(Nc3ccccc3)C2=O)c1 (stereo unspecified)	i
CCOc1cc(CN2CCN(CCOCCO)CC2)ccc1OC	0.5
Cc1cc(NCc2ccc3c(c2)OCO3)n2nc(C)nc2n1	0.4
CCCOc1ccc(C(=O)Nn2c(C)nc3ccccc3c2=O)cc1	i
CCOC(=O)CC(=O)Nc1ccc(C)cc1	i
COc1ccc2[nH]c(C)c(CCN3C(=O)OC(C)(C)C3(C)O)c2c1 (stereo unspecified)	0.5
COc1ccc(N2C(=O)C3CCCN3C2c2cccc(Br)c2)cc1 (stereo unspecified)	0.2
CCOc1ccc(C(=O)N2CCCCCC2)cc1	0.9
c1c2c(cc3sc(N4CCOCC4)nc13)OCO2	i
O=c1c2ccccc2ncn1C1CCCCC1	0.2
CN1C(=O)/C(=C/c2ccccc2OCc2ccccc2F)NC1=S	i

Already shown: entries from further up.
SMILES	H5N1 antiviral
COc1ccc2[nH]c(C)c(CCN3C(=O)OC(C)(C)C3(C)O)c2c1 (stereo unspecified)	0.5
COc1ccc(N2C(=O)C3CCCN3C2c2cccc(Br)c2)cc1 (stereo unspecified)	0.2
CCOc1ccc(C(=O)N2CCCCCC2)cc1	0.9
c1c2c(cc3sc(N4CCOCC4)nc13)OCO2	i
O=c1c2ccccc2ncn1C1CCCCC1	0.2
CN1C(=O)/C(=C/c2ccccc2OCc2ccccc2F)NC1=S	i
